Env fusion inh: blocks HIV Env-driven cell-cell fusion. actives 1.1% (n = 360,000). inhibition, % at 12.3 µM. HeLa-JRFL Env/CEM21 cell fusion, luciferase;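 active means mean replicate inhibition score of at least 50 and every replicate individually at or above 50; inconclusive means only one of the two criteria met; inactive means mean below 50 and not all replicates reaching 50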;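 further: 0% = plate neutral controls and 100% = maraviroc near 300 nM; one replicate is shown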
UUG fidelity: modulators of start codon recognition fidelity in yeast; S. cerevisiae UUG-firefly luciferase reporter, luminescence/redox ratio; activity score, % at 18.7 µM; actives 0.13% (n = 350,000);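 active means replicate mean at a twofold rise or more, about +100% in these data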;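 further: firefly luciferase made from a UUG start codon reports start codon fidelity; reporter light over untreated wells divided by growth signal over untreated wells; some hits fall short of that in this replicate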
Starred values were filed as active, the others as inactive; ? = inconclusive; [ ] = dose if it differs, or a comment. This is a subset (hit frequency here may not be typical).

smiles | Env fusion inh | UUG fidelity
COc1ccc(NC(=O)Nc2ccc3c(c2)C(=O)N([C@@H](C)CO)C[C@@H](C)[C@H](CN(C)Cc2ccc4c(c2)OCO4)O3)cc1 | 10[16.7 µM] | -16
C[C@@H]1CN([C@H](C)CO)C(=O)c2cccc(NC(=O)c3nc4ccccc4s3)c2O[C@H]1CN(C)S(=O)(=O)c1ccccc1 | -58[16.7 µM] | -14
COc1ccc(S(=O)(=O)Nc2ccc3c(c2)C(=O)N([C@@H](C)CO)C[C@H](C)[C@@H](CN(C)C(=O)Nc2ccccc2)OCCCC[C@H](C)O3)cc1 | -23[16.7 µM] | 5
C[C@@H]1CN([C@@H](C)CO)C(=O)c2cc(-c3cccnc3)cnc2O[C@@H]1CN(C)C(=O)C1CC1 | 5[16.7 µM] | -5
C[C@@H]1CN([C@@H](C)CO)C(=O)c2cc(N(C)C)ccc2O[C@H]1CN(C)C | -5[16.7 µM] | -6
COc1ccc(S(=O)(=O)N(C)C[C@H]2OCCCC[C@H](C)Oc3ccc(NC(=O)Cc4ccccc4)cc3C(=O)N([C@H](C)CO)C[C@@H]2C)cc1 | -13[16.7 µM] | 4
CNC[C@H]1Oc2ccc(NC(=O)Nc3c(C)noc3C)cc2CC(=O)N([C@@H](C)CO)C[C@@H]1C | 3[16.7 µM] | 0
CCC(=O)Nc1ccc2c(c1)C(=O)N(C)C[C@@H](OC)[C@@H](C)CN(C(=O)c1ccc(F)cc1)[C@@H](C)CO2 | 20[16.7 µM] | 7
C[C@@H]1CCCCO[C@@H](CN(C)C(=O)Nc2ccc(F)cc2)[C@@H](C)CN([C@@H](C)CO)C(=O)c2cc(N(C)C)ccc2O1 | -11[16.7 µM] | 18
C[C@@H]1CCCCO[C@H](CN(C)C(=O)Nc2ccc(F)cc2)[C@@H](C)CN([C@@H](C)CO)C(=O)c2cc(NC(=O)c3ccncc3)ccc2O1 | -28[16.7 µM] | -1
CO[C@H]1CN(C)C(=O)c2cc(NS(=O)(=O)c3ccc(C)cc3)ccc2OC[C@@H](C)N(Cc2nccs2)C[C@H]1C | 14[16.7 µM] | 4
O=C(NCC[C@@H]1CC[C@@H](NC(=O)C2CCCCC2)[C@H](CO)O1)c1cc(Cl)cc(Cl)c1 | 9[16.7 µM] | 1
COc1ccc(-c2cnc3c(c2)C(=O)N([C@@H](C)CO)C[C@H](C)[C@H](CN(C)C(=O)Cc2ccccc2)O3)cc1 | 16[16.7 µM] | 13
CCCN(C)C[C@H]1Oc2cc(C#CC(C)C)ccc2S(=O)(=O)N([C@H](C)CO)C[C@H]1C | -36[16.7 µM] | 7
CN(C)C(=O)C[C@H]1CC[C@H]2[C@@H](COc3ccc(NC(=O)c4cnccn4)cc3C(=O)N2C)O1 | 0[16.7 µM] | -6
C[C@@H]1CN([C@H](C)CO)C(=O)c2cccc(NC(=O)Nc3ccc(F)cc3)c2O[C@H]1CN(C)CC1CCCCC1 | 33[16.7 µM] | 9
CN(C)c1ccc2c(c1)[C@H]1C[C@H](CC(=O)NCc3ccc(Cl)cc3)O[C@@H](CO)[C@H]1O2 | 5[16.7 µM] | -20
C[C@H](CO)N1C[C@H](C)[C@H](CN(C)CC2CC2)Oc2ccc(NS(C)(=O)=O)cc2CC1=O | 24[16.7 µM] | 0
C[C@@H]1CCCCO[C@@H](CN(C)CC2CCCCC2)[C@@H](C)CN([C@@H](C)CO)C(=O)c2cc(NC(=O)C3CCCCC3)ccc2O1 | -4[16.7 µM] | 30
O=C(NCC[C@@H]1CC[C@H](NS(=O)(=O)c2ccc(F)cc2)[C@@H](CO)O1)Nc1ccc(F)cc1 | -1[16.7 µM] | -7
C[C@H]1CN([C@@H](C)CO)C(=O)c2cccc(NC(=O)Nc3ccc(F)cc3)c2O[C@@H]1CN(C)S(=O)(=O)c1cccs1 | -11[16.7 µM] | 18
C[C@H]1CCCCO[C@H](CN(C)C(=O)c2ccccc2)[C@@H](C)CN([C@@H](C)CO)C(=O)c2cc(NS(=O)(=O)c3cn(C)cn3)ccc2O1 | 7[16.7 µM] | 9
C[C@H]1CN([C@@H](C)CO)C(=O)c2cccc(NC(=O)c3ccc(-c4nccs4)cc3)c2O[C@H]1CN(C)C(=O)Nc1cccc2ccccc12 | 0[16.7 µM] | -18
Cc1noc(C)c1NC(=O)N(C)C[C@@H]1Oc2ccc(NS(=O)(=O)c3ccc(F)cc3)cc2CC(=O)N([C@H](C)CO)C[C@H]1C | -2[16.7 µM] | -3
CN1CCN(C(=O)C[C@H]2CC[C@H]3[C@H](COc4ccc(NC(=O)c5cccs5)cc4C(=O)N3C)O2)CC1 | -1[16.7 µM] | -11
COCC#Cc1cnc2c(c1)C(=O)N([C@H](C)CO)C[C@H](C)[C@@H](CN(C)C(=O)C1CCCCC1)O2 | -1[16.7 µM] | 12
C[C@H](CO)N1C[C@H](C)[C@H](CN(C)Cc2ccc(Oc3ccccc3)cc2)Oc2ccc(NC(=O)Nc3ccc4c(c3)OCO4)cc2CC1=O | 10[16.7 µM] | -5
C[C@@H]1CN([C@@H](C)CO)C(=O)c2cc(-c3ccccc3F)cnc2O[C@@H]1CN(C)C(=O)CN(C)C | -19[16.7 µM] | -15
COc1cccc(S(=O)(=O)N[C@@H]2C=C[C@@H](CC(=O)NC3CCC3)O[C@@H]2CO)c1 | 15[16.7 µM] | -9
C[C@@H]1CCCCO[C@H](CN(C)C(=O)CCC(F)(F)F)[C@H](C)CN([C@H](C)CO)C(=O)c2cc(NS(=O)(=O)c3ccc(F)cc3)ccc2O1 | -13[16.7 µM] | 5
COCC(=O)Nc1ccc2c(c1)C(=O)N(C)[C@H]1CC[C@@H](CC(=O)NCc3ccccc3F)O[C@@H]1CO2 | -7[16.7 µM] | 3
COc1ccc(NC(=O)Nc2ccc3c(c2)C(=O)N([C@@H](C)CO)C[C@@H](C)[C@@H](CN(C)S(=O)(=O)c2ccc(Cl)cc2)O3)cc1 | -10[16.7 µM] | 3
C[C@@H]1CN([C@H](C)CO)C(=O)c2cc(NC(=O)Cc3ccccc3)ccc2O[C@@H](C)CCCCO[C@@H]1CN(C)Cc1ccc(Cl)c(Cl)c1 | -11[16.7 µM] | -7
Cc1ccc(S(=O)(=O)N[C@@H]2CC[C@@H](CC(=O)N3CCC(Cc4ccccc4)CC3)O[C@H]2CO)cc1 | 21[16.7 µM] | 5
C[C@@H]1CN([C@@H](C)CO)C(=O)Cc2cc(NC(=O)C3CC3)ccc2O[C@@H]1CN(C)C(=O)Nc1ccc(F)cc1 | 19[16.7 µM] | 22
C[C@@H]1CCCCO[C@@H](CN(C)C(=O)CCCN(C)C)[C@@H](C)CN([C@@H](C)CO)C(=O)c2cc(NS(=O)(=O)c3ccccc3)ccc2O1 | -11[16.7 µM] | 21
C[C@H](CO)N1C[C@H](C)[C@@H](CN(C)Cc2cccc(C(=O)O)c2)Oc2ncc(C#CCN(C)C)cc2C1=O | -1[16.7 µM] | -7
O=C(NCC[C@H]1CC[C@@H](NC(=O)C2CC2)[C@@H](CO)O1)c1cnccn1 | 10[16.7 µM] | -5
COc1ccccc1CNC(=O)C[C@@H]1C[C@@H]2c3cc(NC(=O)CC4CC4)ccc3O[C@@H]2[C@H](CO)O1 | -3[16.7 µM] | -16
COc1ccc(S(=O)(=O)Nc2ccc3c(c2)C(=O)N([C@@H](C)CO)C[C@H](C)[C@@H](CN(C)S(=O)(=O)c2ccc(OC)cc2)O3)cc1 | 5[16.7 µM] | 0

More entries follow.
SMILES	Env fusion inh	UUG fidelity
Cc1ccc(S(=O)(=O)N(C)C[C@H]2Oc3ccc(NC(=O)Nc4ccc(C(F)(F)F)cc4)cc3CC(=O)N([C@@H](C)CO)C[C@H]2C)cc1	94*[16.7 µM]	1
C[C@H]1CN([C@@H](C)CO)S(=O)(=O)c2ccc(-c3cccc(C#N)c3)cc2O[C@H]1CN(C)C(=O)C1CC1	-17[16.7 µM]	-10
C[C@H]1CCCCO[C@H](CN(C)C(=O)Nc2ccc(C(F)(F)F)cc2)[C@@H](C)CN([C@@H](C)CO)C(=O)c2cc(NC(=O)Nc3cccc4ccccc34)ccc2O1	35[16.7 µM]	-16
O=C(C[C@H]1C[C@@H]2c3cc(NC(=O)C4CCOCC4)ccc3O[C@@H]2[C@@H](CO)O1)NC1CCCC1	18[16.7 µM]	8
C[C@H](NC(=O)C[C@@H]1C=C[C@H](NC(=O)C2CCC2)[C@@H](CO)O1)c1ccccc1	-1[16.7 µM]	-3
O=C(C[C@@H]1CC[C@@H](NS(=O)(=O)c2ccccc2)[C@H](CO)O1)N1CCc2ccccc2C1	-11[16.7 µM]	18
O=C(C[C@@H]1C[C@@H]2c3cc(NC(=O)Nc4ccccc4F)ccc3O[C@@H]2[C@@H](CO)O1)NCC1CC1	20[16.7 µM]	-11
CN(C)CC(=O)N[C@@H]1CC[C@H](CC(=O)NCc2ccc(Cl)cc2)O[C@@H]1CO	-3[16.7 µM]	-2
CCCC#Cc1cnc2c(c1)C(=O)N([C@H](C)CO)C[C@H](C)[C@H](CN(C)C(=O)c1cccnc1)O2	10[16.7 µM]	41
O=C(C[C@H]1C=C[C@H](NS(=O)(=O)c2ccccc2)[C@@H](CO)O1)NCc1ccccc1F	14[16.7 µM]	-3

Structural class: the entries above with a thiophene ring, fused or not.
SMILES	Env fusion inh	UUG fidelity
C[C@H]1CN([C@@H](C)CO)C(=O)c2cccc(NC(=O)Nc3ccc(F)cc3)c2O[C@@H]1CN(C)S(=O)(=O)c1cccs1	-11[16.7 µM]	18
CN1CCN(C(=O)C[C@H]2CC[C@H]3[C@H](COc4ccc(NC(=O)c5cccs5)cc4C(=O)N3C)O2)CC1	-1[16.7 µM]	-11

Entries above that contain two or more sulfur atoms (4):
SMILES	Env fusion inh	UUG fidelity
C[C@@H]1CN([C@H](C)CO)C(=O)c2cccc(NC(=O)c3nc4ccccc4s3)c2O[C@H]1CN(C)S(=O)(=O)c1ccccc1	-58[16.7 µM]	-14
CO[C@H]1CN(C)C(=O)c2cc(NS(=O)(=O)c3ccc(C)cc3)ccc2OC[C@@H](C)N(Cc2nccs2)C[C@H]1C	14[16.7 µM]	4
C[C@H]1CN([C@@H](C)CO)C(=O)c2cccc(NC(=O)Nc3ccc(F)cc3)c2O[C@@H]1CN(C)S(=O)(=O)c1cccs1	-11[16.7 µM]	18
COc1ccc(S(=O)(=O)Nc2ccc3c(c2)C(=O)N([C@@H](C)CO)C[C@H](C)[C@@H](CN(C)S(=O)(=O)c2ccc(OC)cc2)O3)cc1	5[16.7 µM]	0

The list continues.
SMILES	Env fusion inh	UUG fidelity
C[C@@H]1CN([C@H](C)CO)C(=O)c2cc(NC(=O)Nc3ccc(C(F)(F)F)cc3)ccc2O[C@@H](C)CCCCO[C@@H]1CN(C)S(=O)(=O)c1ccc(Cl)cc1	-13[16.7 µM]	-9
C[C@H](CO)N1C[C@H](C)[C@H](CN(C)C(=O)c2cccc(F)c2)Oc2ncc(-c3cncnc3)cc2C1=O	-12[16.7 µM]	2
CCC(=O)N(C)C[C@@H]1Oc2ncc(C#Cc3cccnc3)cc2C(=O)N([C@H](C)CO)C[C@@H]1C	14[16.7 µM]	7
CO[C@H]1CN(C)C(=O)c2cc(NS(=O)(=O)c3ccc(C)cc3)ccc2OC[C@@H](C)NC[C@@H]1C	4[16.7 µM]	-6
C[C@@H]1CN([C@H](C)CO)C(=O)c2cc(/C=C/c3ccccc3)cnc2O[C@@H]1CN(C)Cc1ccncc1	-5[16.7 µM]	-2
CN(C)C(=O)C[C@@H]1CC[C@H]2[C@@H](COc3ccc(NS(=O)(=O)c4cccc(F)c4)cc3C(=O)N2C)O1	5[16.7 µM]	-2
O=C1N(CCS(=O)(=O)c2ccccc2)Cc2ccccc2[C@@H]2OC(c3ccc(OCCCO)cc3)=N[C@]12CCS(=O)(=O)c1ccccc1	-1[16.7 µM]	4
C[C@H]1CCCCO[C@@H](CN(C)CC2CCCCC2)[C@@H](C)CN([C@@H](C)CO)C(=O)c2cc(NC(=O)Nc3cccc4ccccc34)ccc2O1	?	4
C[C@@H]1CN([C@@H](C)CO)C(=O)c2cccc(NS(=O)(=O)c3ccc(Cl)cc3)c2O[C@@H]1CN(C)CC1CC1	-1[16.7 µM]	4
O=S(=O)(N[C@@H]1CC[C@@H](CCn2cc(-c3cccc(F)c3)nn2)O[C@H]1CO)c1ccccc1	15[16.7 µM]	-4
CO[C@@H]1CN(C)C(=O)c2cc(NS(=O)(=O)c3ccccc3)ccc2OC[C@@H](C)N(C)C[C@@H]1C	5[16.7 µM]	8
C[C@@H]1CCCCO[C@@H](CN(C)C(=O)C2CCCCC2)[C@H](C)CN([C@H](C)CO)C(=O)c2cc(NC(=O)Nc3ccc4c(c3)OCO4)ccc2O1	12[16.7 µM]	-11
CC(C)NC(=O)NCC[C@H]1CC[C@H](NC(=O)Nc2ccccc2)[C@H](CO)O1	-21[16.7 µM]	10
C[C@@H]1CN([C@H](C)CO)S(=O)(=O)c2ccc(-c3ccccc3F)cc2O[C@@H]1CN(C)Cc1cncnc1	0[16.7 µM]	76
C[C@H](CO)N1C[C@H](C)[C@H](CN(C)C(=O)Nc2ccc(F)cc2)Oc2ncc(C3=CCCC3)cc2C1=O	7[16.7 µM]	11
O=C(C[C@@H]1C=C[C@H](NC(=O)Nc2cc(F)ccc2F)[C@@H](CO)O1)Nc1ccc(-c2ccccc2)cc1	-5[16.7 µM]	-1
O=C(Cc1ccccn1)NCC[C@@H]1CC[C@H](NC(=O)CN2CCOCC2)[C@H](CO)O1	7[16.7 µM]	15
CCNC(=O)C[C@@H]1CC[C@@H](NC(=O)C2CCC2)[C@H](CO)O1	-6[16.7 µM]	6
C[C@H]1CN([C@@H](C)CO)C(=O)Cc2cc(NC(=O)CCN3CCOCC3)ccc2O[C@H]1CN(C)S(=O)(=O)c1ccc(Cl)cc1	-19[16.7 µM]	5
C[C@@H]1CN([C@@H](C)CO)C(=O)c2cc(NS(=O)(=O)c3ccc(F)cc3)ccc2O[C@@H](C)CCCCO[C@@H]1CN(C)S(=O)(=O)c1cn(C)cn1	7[16.7 µM]	7

Screening data from PubChem BioAssay.
